# Six1-Eya2 inh: Six1/Eya2 interaction inhibition; Q15475+O00167; AlphaScreen GST-Six1/His-Eya2 binding, biochemical; stronger effect = lower value; control for the full effect not named in the record; activity change, % (no concentration beside the values); 360,000 compounds, 0.56% hits; in the data active = activity change below about -65%; inconclusive = about -30% to -65%; inactive = above about -30%; note: % is set by controls: 0 for no effect and ±100 for the full control effect
# Target sequence (O00167 whole entry, looked up): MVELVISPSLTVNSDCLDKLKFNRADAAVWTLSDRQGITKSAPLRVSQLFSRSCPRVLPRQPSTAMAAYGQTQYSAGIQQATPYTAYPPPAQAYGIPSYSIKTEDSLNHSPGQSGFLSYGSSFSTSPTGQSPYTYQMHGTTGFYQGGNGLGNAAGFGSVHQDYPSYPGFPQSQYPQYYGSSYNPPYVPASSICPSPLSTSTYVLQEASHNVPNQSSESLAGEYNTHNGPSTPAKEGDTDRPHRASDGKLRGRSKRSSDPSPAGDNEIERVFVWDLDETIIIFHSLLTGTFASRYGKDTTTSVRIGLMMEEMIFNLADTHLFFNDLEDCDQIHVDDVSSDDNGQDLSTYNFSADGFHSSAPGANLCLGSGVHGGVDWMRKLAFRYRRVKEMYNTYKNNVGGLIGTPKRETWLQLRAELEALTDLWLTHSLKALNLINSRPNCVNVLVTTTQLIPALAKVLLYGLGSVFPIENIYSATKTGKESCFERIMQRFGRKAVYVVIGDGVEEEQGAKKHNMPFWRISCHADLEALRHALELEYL
# Target sequence (Q15475 whole entry, looked up): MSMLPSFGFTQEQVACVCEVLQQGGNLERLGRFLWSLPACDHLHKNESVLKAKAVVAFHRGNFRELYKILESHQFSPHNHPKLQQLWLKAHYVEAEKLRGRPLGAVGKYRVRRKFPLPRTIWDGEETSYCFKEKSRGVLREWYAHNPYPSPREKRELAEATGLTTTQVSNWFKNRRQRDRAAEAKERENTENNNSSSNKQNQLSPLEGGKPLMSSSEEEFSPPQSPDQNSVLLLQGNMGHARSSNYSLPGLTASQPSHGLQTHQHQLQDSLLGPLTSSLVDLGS
#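 AlphaScreen with GST-Six1 and His-Eya2 (5X mix: 250 nM and 500 nM), glutathione donor and nickel acceptor beads; buffer 50 mM Tris pH 8.0, 300 mM NaCl, 1 mM TCEP; 1 h at 37 C in the dark.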
# D2 ag: agonists of human D2 dopamine receptor (beta-arrestin); P14416; DiscoveRx PathHunter D2 beta-arrestin, luminescence, 90 min; 100% = 57 uM dopamine signal; activation, % (no concentration beside the values); 360,000 compounds, 0.084% hits; in the data active = activation above about 40%; inconclusive = about 15% to 40%; inactive = below about 15%; note: compound concentration not given in the record; the text of the record calls up to 30% inactive
#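 DiscoveRx PathHunter D2 beta-arrestin cells (2,100/well) attached overnight, then compound-stimulated 90 min at 37 C in HBSS/10 mM HEPES/0.1% Tween-20 buffer; beta-galactosidase complementation read by luminescence after 1 h at ambient temperature. Dopamine 57 uM final (EC100) as control.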
# TRPV1 potentiator: enhances activation of the human vanilloid receptor TRPV1. Q8NER1. TRPV1-expressing cells, Fluo-8 calcium influx, capsaicin EC20 potentiation; host cell line not named in the record; control for the full effect not named in the record. potentiation, % at 8.33 µM. 320,000 compounds, 0.02% hits; active means potentiation above 80%; inconclusive means 30% to 80%; inactive means below 30%; note: 0% is about no effect
#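 TRPV1-expressing cells were cultured overnight at 35.5C and loaded with Fluo-8 calcium dye for 40 to 90 min at room temperature. After a 10 s baseline, compound was added and calcium influx was read kinetically for 3 min (ex 480/em 520 nm).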
# CtBP-E1A blk: inhibitors of CtBP/E1A interaction. 340,000 compounds, 0.49% hits. activity change, % (no concentration beside the values). AlphaScreen GST-E1A/His-CtBP binding, 1536-well; stronger effect = lower value; control for the full effect not named in the record; in the data active means activity change below about -65%; inconclusive means about -30% to -65%; inactive means above about -30%; note: % is set by controls: 0 for no effect and ±100 for the full control effect
#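 AlphaScreen with 125 nM GST-E1A and 125 nM His-CtBP (5X stocks) in Tris pH 8.0, 300 mM NaCl, BSA, Tween 20, TCEP. Compounds preincubated 2 h at 37 deg C, then glutathione donor/nickel acceptor beads added for 1 h at 37 deg C in dark.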
# Sfp inh: Sfp phosphopantetheinyl transferase inhibition; Q9F4F7; Biochemical Sfp PPTase activity, qHTS; Potency, µM, inactives show max response, negative = inhibition, usual class: inhibitors; 310,000 compounds, 3.5% hits; AID 1490; active = well fitted inhibition curve with a large enough effect; inconclusive = small, poorly fitted or top-dose-only effect, or another doubt; inactive = no such curve, though single readings can be large or run the other way;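 note: the enzyme is Sfp with the accession as filed and its product quenches rhodamine fluorescence; potency is the fitted concentration of half-maximal effect; 0% = enzyme reaction without inhibitor and -100% = no enzyme wells; top concentration of the series not given in the record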
#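 Compounds were incubated with enzyme (final 15 nM) for 15 min at room temperature before substrate addition started the reaction. Fluorescence at 525 nm excitation, 598 nm emission was recorded immediately and after 30 minutes.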
# D2 potentiator: human D2 receptor positive allosteric modulation; DiscoveRx D2 beta-arrestin cells, luminescence, 90 min; 100% = 57 uM dopamine signal; 360,000 compounds, 0.23% hits; AID 624464; potentiation, % (test concentration not listed); P14416; active = potentiation of 50% or more; inconclusive = 30% to 50%; inactive = 30% or less;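 note: compound concentration not given in the record; tested on top of an EC20 dose of dopamine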
#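 PathHunter beta-arrestin assay in DiscoveRx D2 cells. Compounds were added with an EC20 of dopamine (50 nM final) for 90 min at 37 deg C. Luminescence was read 1 h after detection reagent, with 57 uM dopamine as the EC100 control.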
# PINK1 expr mod: modulators of PINK1 expression; 410,000 compounds, 0.2% hits; Potency, µM (top dose mostly 76.6 µM), without a hit: top-dose activation (PINK1 increase), hits mostly activators; PINK1 immunofluorescence, high-content cytometry, 24 h; active = well fitted activation curve with a large enough effect; inconclusive = small, poorly fitted or top-dose-only effect; inactive = flat fitted curve, though single readings scatter; cell line not stated here;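 note: potency is the fitted concentration of half-maximal effect; % of control where 0% means no effect; nearly all actives have a fitted effect of over 65% in size; a mitochondrial uncoupler was the plate control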
#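 Compound titrations (5 concentrations, 24 h) on a stable cell line; DMSO and CCCP controls. Endpoint: fixed-cell PINK1 immunofluorescence with mitochondrial, cell and nuclear markers, scanned by microplate cytometer.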
# * marks the source's active call; other numbers are inactive results; u = inconclusive; x = no result given; [ ] = dose if it differs, or a comment.
nr	structure	Six1-Eya2 inh	PINK1 expr mod	D2 potentiator	CtBP-E1A blk
1	C#CCOCCOCCOCCNc1nc(N2CCN(C(=O)CCCCCCCCCCNC(=O)[C@H](CCCCN)n3cc(CCCC(=O)O)nn3)CC2)nc(N2CCN(C(=O)CCCCCCCCCCNC(=O)[C@H](CCCN=C(N)N)n3cc(C[C@@H](C)CC)nn3)CC2)n1	-18	-0.3%	-7	-18
2	CCN(Cc1nc2ccccc2c(=O)[nH]1)Cc1cc(=O)oc2cc(OC)ccc12	6	-1.8%	1	0
3	C=CC[C@H](CC(=O)OC(C)(C)C)C(=O)OC[C@@H]1CCCN1C(=O)[C@H](CC=C)CC(=O)N[C@H](CO)Cc1ccccc1	13	0.7%	4	0
4	O=C(COC(=O)C1CCN(S(=O)(=O)c2ccc3c(c2)OCCO3)CC1)NC1CCCCC1	-1	1.3%	0	-6
5	CC(C)CNC1=CC(=O)CC(c2ccco2)C1 (stereo unspecified)	-7	-1.1%	-7	-13
6	CC1(Cc2ccc(C(F)(F)F)nc2)C(=O)Nc2cc(-c3ccccc3Cl)ccc21 (stereo unspecified)	-1	5.9%	-2	-13
7	Cn1c(C(=O)NCCN2CCN(Cc3ccccc3)CC2)cc2c(=O)n(C)c3ccccc3c21	-1	0.9%	-10	-2
8	COc1cc(N(C)C)c([N+](=O)[O-])cc1C(=O)NC(C)CNc1ccc([N+](=O)[O-])cc1Cl (stereo unspecified)	3	3.3%	-10	0
9	Cc1cccc(NC(=O)CNC(=O)c2ccc3c(c2)OCO3)n1	0	2.0%	-18	3
10	Cc1cc(C)cc(CC(=O)N2CCC2(C)C(=O)NS(=O)(=O)c2ccc(C(C)(C)C)cc2)c1 (stereo unspecified)	10	1.0%	0	-6

nr	D2 ag	TRPV1 potentiator	Sfp inh
1	4.3	20	x
2	4.1	2	-2%
3	-8.1	x	x
4	-2.7	1	x
5	2.0	-2	u
6	9.8	x	x
7	3.1	-5	-8%
8	-2.3	11	-8%
9	-9.3	-17	x
10	2.0	x	x

# Whole records, quoted from the list:
# Entry for `C#CCOCCOCCOCCNc1nc(N2CCN(C(=O)CCCCCCCCCCNC(=O)[C@H](CCCCN)n3cc(CCCC(=O)O)nn3)CC2)nc(N2CCN(C(=O)CCCCCCCCCCNC(=O)[C@H](CCCN=C(N)N)n3cc(C[C@@H](C)CC)nn3)CC2)n1` → Six1-Eya2 inh: -18; PINK1 expr mod: -0.3%; D2 potentiator: -7; CtBP-E1A blk: -18; D2 ag: 4.3; TRPV1 potentiator: 20; Sfp inh: x
# Entry for `O=C(COC(=O)C1CCN(S(=O)(=O)c2ccc3c(c2)OCCO3)CC1)NC1CCCCC1` → Six1-Eya2 inh: -1; PINK1 expr mod: 1.3%; D2 potentiator: 0; CtBP-E1A blk: -6; D2 ag: -2.7; TRPV1 potentiator: 1; Sfp inh: x

# Later entries.
nr	structure	Six1-Eya2 inh	PINK1 expr mod	D2 potentiator	CtBP-E1A blk
11	CNC(=O)c1ccccc1NC(=O)c1ccc(C)c(S(=O)(=O)N2CCCCC2)c1	-16	-0.7%	0	-13
12	COc1ccc(-c2csc(C(C)(O)c3ccc(F)c(F)c3)n2)cn1 (stereo unspecified)	3	5.5%	6	9
13	COc1cc(NC(=O)CSc2nc(=O)n(CCCN3CCOCC3)c3c2CCC3)cc(OC)c1	-5	-0.1%	11	-1
14	CCN(CC)c1ccc(NC(=O)Cn2nnc(-c3cccc(OC)c3OC)n2)c(C)c1	-1	-0.8%[38.3 µM]	-6	-8
15	CC1CC(NC(=O)Cc2ccc(Br)cc2)CC(C)(C)C1 (stereo unspecified)	11	0.8%	-9	-1
16	C[C@H](CO)N1C[C@H](C)[C@H](CN(C)Cc2ccncc2)Oc2ncc(Br)cc2C1=O	-1	-0.8%	-1	1
17	Cc1cccc(C)c1NC(=O)CN1CCCC1	5	3.4%	-6	-1
18	O=c1[nH]c2cc3c(cc2cc1CN(CCCO)Cc1nnnn1Cc1ccc(F)cc1)OCO3	3	-2.9%	-9	-1
19	O=C1CCCN1CCCNc1nc(NCc2ccccc2)nc2ccsc12	-10	2.9%	-17	-10
20	CC(=O)Nc1ccc2nc(-c3ccc(Br)o3)[nH]c2c1	-7	-0.8%	-4	-9

nr	D2 ag	TRPV1 potentiator	Sfp inh
11	-3.1	0	12%
12	6.7	x	x
13	6.5	6	x
14	0.2	2	13%
15	-2.9	-2	13%
16	-1.8	x	x
17	2.9	x	11%
18	-2.3	-7	17%
19	1.6	x	x
20	1.0	2	-72%

# Another view of 13 compounds above:
no.	Compound	Six1-Eya2 inh	PINK1 expr mod	D2 potentiator	CtBP-E1A blk	D2 ag	TRPV1 potentiator	Sfp inh
6	CC1(Cc2ccc(C(F)(F)F)nc2)C(=O)Nc2cc(-c3ccccc3Cl)ccc21 (stereo unspecified)	-1	5.9%	-2	-13	9.8	x	x
7	Cn1c(C(=O)NCCN2CCN(Cc3ccccc3)CC2)cc2c(=O)n(C)c3ccccc3c21	-1	0.9%	-10	-2	3.1	-5	-8%
8	COc1cc(N(C)C)c([N+](=O)[O-])cc1C(=O)NC(C)CNc1ccc([N+](=O)[O-])cc1Cl (stereo unspecified)	3	3.3%	-10	0	-2.3	11	-8%
9	Cc1cccc(NC(=O)CNC(=O)c2ccc3c(c2)OCO3)n1	0	2.0%	-18	3	-9.3	-17	x
10	Cc1cc(C)cc(CC(=O)N2CCC2(C)C(=O)NS(=O)(=O)c2ccc(C(C)(C)C)cc2)c1 (stereo unspecified)	10	1.0%	0	-6	2.0	x	x
11	CNC(=O)c1ccccc1NC(=O)c1ccc(C)c(S(=O)(=O)N2CCCCC2)c1	-16	-0.7%	0	-13	-3.1	0	12%
12	COc1ccc(-c2csc(C(C)(O)c3ccc(F)c(F)c3)n2)cn1 (stereo unspecified)	3	5.5%	6	9	6.7	x	x
13	COc1cc(NC(=O)CSc2nc(=O)n(CCCN3CCOCC3)c3c2CCC3)cc(OC)c1	-5	-0.1%	11	-1	6.5	6	x
14	CCN(CC)c1ccc(NC(=O)Cn2nnc(-c3cccc(OC)c3OC)n2)c(C)c1	-1	-0.8%[38.3 µM]	-6	-8	0.2	2	13%
15	CC1CC(NC(=O)Cc2ccc(Br)cc2)CC(C)(C)C1 (stereo unspecified)	11	0.8%	-9	-1	-2.9	-2	13%
16	C[C@H](CO)N1C[C@H](C)[C@H](CN(C)Cc2ccncc2)Oc2ncc(Br)cc2C1=O	-1	-0.8%	-1	1	-1.8	x	x
17	Cc1cccc(C)c1NC(=O)CN1CCCC1	5	3.4%	-6	-1	2.9	x	11%
18	O=c1[nH]c2cc3c(cc2cc1CN(CCCO)Cc1nnnn1Cc1ccc(F)cc1)OCO3	3	-2.9%	-9	-1	-2.3	-7	17%

# Next section.
nr	structure	Six1-Eya2 inh	PINK1 expr mod	D2 potentiator	CtBP-E1A blk
21	COc1ccc(NC(=O)CC2C(=O)N(Cc3ccccc3)C(=S)N2CCN2CCOCC2)cc1 (stereo unspecified)	-7	1.0%	-8	-4
22	COc1ccc(CC2(CO)CCN(Cc3ccc4nsnc4c3)CC2)cc1	-7	-1.6%	-18	-3
23	COc1ccc(C2=NN(CC(=O)Nc3ccccc3C)C(=O)CC2)cc1	-6	-3.1%	-3	2
24	CC1CN(c2ccc(C(=O)c3ccccc3C(=O)O)cc2[N+](=O)[O-])CC(C)O1 (stereo unspecified)	4	4.0%	-1	x
25	CC(C)(C)OC(=O)NCCCCCNC(=O)c1ncn(Cc2ccccc2)c1C(=O)NCCCCCNC(=O)OC(C)(C)C	-3	-0.2%	-5	2
26	CC(C)CNC(=S)N1CCN(C(c2ccccc2)c2ccccc2)CC1	-2	5.2%	-12	-3

nr	D2 ag	TRPV1 potentiator	Sfp inh
21	-0.9	0	16%
22	0.7	17	10%
23	-4.8	-11	4%
24	-4.0	17	-5%
25	-0.9	x	x
26	-1.5	-12	0%

# Source: PubChem
